# From PubChem BioAssay
# FGF22 binding – shifts melting point of recombinant human FGF22; Q9HCT0; calls only at 9.99 µM; AID 651658; recombinant FGF22 thermal shift, SYPRO orange fluorescence; percent of sucrose octasulfate shift, DMSO zero; 340,000 tested, 1.5% active;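 active = melting point raised past a set limit in the mean and every replicate; inconclusive = no clear call; three in four hits are not shown here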
# Vif A3G – inhibitors of Vif binding to APOBEC3G peptide, primary screen, biochemical, TR-FRET, GST-Vif 1-94, biotin-A3G peptide, dose response retest (AID 1117319); TR-FRET GST-Vif / biotin-A3G peptide binding; higher % means a stronger effect; test concentration not given here; strong numbers were not always called active; inhibition, %; hits with a dose series show IC50 in µM; 260,000 tested, 0.57% active;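 active = above the screen mean plus three standard deviations and confirmed in dose response; inconclusive = results disagree or hit not tested in dose response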;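 note: Vif residues 1-94 fused to GST binding biotinylated APOBEC3G peptide 110-148; 0% = full assay without inhibitor and 100% = GST in place of GST-Vif; retest series ran down from 100 µM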
# HNF4A DNA FP – change in binding of human HNF4 alpha to DNA | P41235 | 360,000 tested, 0.3% active | HNF4a-FITC DNA binding, fluorescence polarization, 1 h | activity change, % at 10 µM; in the data active = activity change above about 30%, passing the limit was not always enough;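 note: controls were the assay level and a saturating level of protein; the project sought stronger binding though the title names inhibitors; some compounds called inactive have numbers as strong as hits; positive values seem to mean higher polarization but the record does not say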
# Target sequence (P41235 whole entry, looked up): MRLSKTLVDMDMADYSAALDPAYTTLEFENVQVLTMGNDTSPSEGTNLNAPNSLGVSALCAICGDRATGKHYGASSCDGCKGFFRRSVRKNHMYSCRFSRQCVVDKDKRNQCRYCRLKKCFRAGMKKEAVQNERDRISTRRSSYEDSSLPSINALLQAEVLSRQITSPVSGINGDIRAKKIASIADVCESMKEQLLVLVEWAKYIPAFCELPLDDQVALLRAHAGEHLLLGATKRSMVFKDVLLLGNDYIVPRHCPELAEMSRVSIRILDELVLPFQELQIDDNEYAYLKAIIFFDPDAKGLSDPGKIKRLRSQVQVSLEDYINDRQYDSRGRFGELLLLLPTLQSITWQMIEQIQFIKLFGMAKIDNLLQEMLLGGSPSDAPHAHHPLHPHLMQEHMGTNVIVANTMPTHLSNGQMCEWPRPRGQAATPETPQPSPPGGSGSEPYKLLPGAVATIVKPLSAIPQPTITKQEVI
# E coli growth – blocks Escherichia coli growth | OD600 absorbance (no concentration beside the values) | OD600, 23 h; stronger effect = lower value | 330,000 tested, 0.21% active;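 active = OD600 absorbance below the run mean of sample wells minus 3.6 SD, in any replicate, cut at about 0.56 in these data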;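 note: stock transfer was 300 nL into about 60 µL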
# MLL AF4-AF9 inh – MLL-AF4/AF9 protein interaction inhibition; P42568; AlphaScreen, biotin-AF4 peptide binding to FLAG-AF9; AID 651704; inhibition, % at 10 µM; 350,000 tested, 0.47% active;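 active = every replicate reaching a set inhibition limit, whatever the replicate mean, cut at about 25% in these data; inconclusive = mean inhibition reaches that limit but some replicates miss it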;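 note: 0% = plate neutral control median and 100% = total signal loss; the record names both 10 and 1 µM as test concentration; the first replicate is given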
# Target sequence (P42568 whole entry, looked up): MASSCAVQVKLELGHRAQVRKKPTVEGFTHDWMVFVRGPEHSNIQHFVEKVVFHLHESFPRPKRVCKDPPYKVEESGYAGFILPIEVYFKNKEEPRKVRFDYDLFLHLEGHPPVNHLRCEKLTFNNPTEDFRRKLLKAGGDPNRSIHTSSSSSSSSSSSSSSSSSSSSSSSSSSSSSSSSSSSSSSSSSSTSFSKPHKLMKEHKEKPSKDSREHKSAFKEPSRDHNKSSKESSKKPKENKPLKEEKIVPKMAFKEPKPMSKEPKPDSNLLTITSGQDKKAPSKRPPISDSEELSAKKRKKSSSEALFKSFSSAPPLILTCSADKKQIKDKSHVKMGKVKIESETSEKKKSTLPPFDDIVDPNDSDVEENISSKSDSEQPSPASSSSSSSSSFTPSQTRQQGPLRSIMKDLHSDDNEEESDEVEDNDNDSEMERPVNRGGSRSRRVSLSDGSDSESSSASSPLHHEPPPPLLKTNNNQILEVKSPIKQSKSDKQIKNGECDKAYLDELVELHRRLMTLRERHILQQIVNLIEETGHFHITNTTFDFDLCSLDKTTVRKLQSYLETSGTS
# rRNA inh HTS – inhibits bacterial ribosomal RNA function over humanized ribosomes; E. coli WT GFP vs humanized-ribosome RFP mutants, fluorescence, 24 h; stronger effect = lower value; DMSO median 0, no signal -100; GFP signal change (wild-type ribosome), % (concentration not given with the values); 350,000 tested, 1.6% active; AID 720706;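 active = significant combined selectivity score with lowered wild-type GFP, culture density cut under 30%, mutant RFP and density less affected; inactive = any of these conditions unmet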; note: one replicate is shown; some compounds called inactive have numbers as strong as hits
# ALR H2O2 inh – human ALR oxidase inhibition via reduced H2O2 | P55789 | purified ALR, DTT oxidation, H2O2 HRP-luminol luminescence | inhibition, % (concentration not given with the values) | 290,000 tested, 3.8% active | AID 485317;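 active = mean and each replicate at 75% or more; inconclusive = only one of the two met; inactive = neither met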;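 note: stock transfer was 7.5 nL into about 7.5 µL; 0% = neutral wells and 100% = wells with inactivated enzyme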
# rRNA inh HTS OD600 – second read-out of rRNA inh HTS, no call of its own (marks repeat the call); OD600 change, %; measured here: OD600 growth;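 optical density of the mix in the first replicate; 0 = DMSO median and -100 = no signal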
# rRNA inh HTS RFP – further read-out of rRNA inh HTS, marked with its call; RFP signal change, %; measured here: RFP humanized mutant strains;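 first replicate; 0 = DMSO median and -100 = no signal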
# Starred values were filed as active, the others as inactive; i = inactive; ? = inconclusive; / = not tested or not shown. Not all compounds are listed. The share of hits here may be higher or lower than overall.
# Screens in order: rRNA inh HTS, ALR H2O2 inh, Vif A3G, rRNA inh HTS OD600, HNF4A DNA FP, rRNA inh HTS RFP, FGF22 binding, MLL AF4-AF9 inh, E coli growth
> CC(C)C[C@H]1CN(CCCC[C@H]2CNC(=O)C(=O)N2CC2CCCCC2)C(=O)C(=O)N1CCc1ccccc1
    -6, /, /, -23, -6.1, -3.3, i, 15, /
> O=C(C[C@@H]1CC[C@@H](NC(=O)CN2CCOCC2)[C@@H](CO)O1)NCCc1ccccc1
    2, /, /, 7, /, -2.3, i, -2.5, /
> C/C(=C\c1cccc(Br)c1)C(=O)c1c(C)cc(C)[nH]c1=O
    -15, 2, -3%, -20, -0.6, -1.0, i, 3.1, 0.67
> COCc1[nH]c(=S)[nH]c(=O)c1C
    14, 7, -9%, 14, -0.3, -2.8, i, -0.7, 0.67
> CCOC(=O)C(CC)n1cnc2c(nnn2-c2cccc(OC)c2)c1=O (stereo not drawn)
    7, -4, -8%, 18, 2.1, 0.3, i, -6.0, 0.65
> O=C(COc1ccccc1[N+](=O)[O-])Nc1ccc2c(c1)CCC2
    5, /, 3%, 12, -0.1, -1.2, i, -0.3, 0.71
> Cc1ccc(S(=O)(=O)C2(C(=O)N3CCCC(C)C3)CC2)cc1 (stereo not drawn)
    0, 3, 26%, 0, 9.3, -1.3, i, -1.1, 0.71
> Cc1ccc(C(=O)Cn2ncsc2=N)cc1
    /, 16, -5%, /, 1.5, /, /, /, 0.7
> CCCCn1c(CN2CCN(c3ccc(F)cc3)CC2)nc2c1c(=O)n(C)c(=O)n2C
    7, 25, 0%, 12, 0.4, -1.7, i, -4.9, 0.71
> CCOC(=O)c1c[nH]c(=S)n1C
    9, -6, 4%, -1, 0.7, -1.0, i, 3.1, 0.63
> Cc1ccc(-c2cc(C(=O)N3CCc4ccccc4C3)[nH]n2)cc1C
    -3, -4, /, 7, 2.3, -1.8, i, -2.3, 0.71
> Cc1ccc(S(=O)(=O)C2(C(=O)NCCc3ccccc3)CC2)cc1
    3, -12, -3%, 5, 2.4, 1.0, i, 12, 0.7
> C=C1CC(C(=O)N/N=C/c2ccccc2)C1
    26, 37, -2%, 14, -1.9, 15, i, -3.4, /
> CC1=C(c2ccc(C)cc2)S(=O)(=O)N(CC(=O)O)C1=O
    /, /, 3%, /, -0.4, /, /, /, 0.74
> COc1ccc(S(=O)(=O)Nc2ccc3c(c2)C(=O)N([C@@H](C)CO)C[C@@H](C)[C@H](CN(C)C(=O)Nc2ccc(C(F)(F)F)cc2)OCCCC[C@H](C)O3)cc1
    1, /, /, 4, /, -1.2, i, 0.6, /
> Cc1ccc(OCCNC(=O)c2cccc(S(=O)(=O)NCc3ccccc3)c2)cc1
    -2, /, 2%, 3, -1.0, -0.8, i, 6.1, 0.67
> CCN(CC)S(=O)(=O)c1ccc(O)c(C(=O)OCC(=O)N2c3ccccc3CC2C)c1 (stereo not drawn)
    -13, 1, /, 0, 0.7, 7.4, i, -23, 0.65
> COc1ccccc1-c1nn2c(C(F)(F)F)nnc2s1
    /, -4, -4%, /, 0.6, /, /, /, 0.68
> CN(C[C@H]1N[C@@H](CO)[C@H]1c1ccc(C2=CCCC2)cc1)S(C)(=O)=O
    1, /, /, 4, /, 2.7, i, 0.7, /
> C=C(C)C1CC=C(C)/C(=N/NC(=O)CNc2ccc(C)cc2C)C1 (stereo not drawn)
    /, -9, -4%, /, 1.8, /, /, /, /
> O=C(COC(=O)c1cccs1)NC12CC3CC(CC(C3)C1)C2
    21, 1, -4%, 8, -3.1, -0.1, i, -0.2, 0.71
> Cc1ccc2nc3c(c(Nc4ccc(O)cc4)c2c1)CCC3
    -10, ?, -4%, -16, 7.4, -1.2, i, 15, /
> CCCCC(=O)NC(=S)NNC(=O)c1ccc(OC)cc1
    -29, /, 6%, -30, 1.1, -6.0, i, 2.2, 0.66
> O=S(=O)(c1ccccc1)N1CCCCN2[C@H](CO)[C@H](c3ccc(-c4ccccc4)cc3)[C@@H]2C1
    -4, /, /, 0, /, 14, i, -4.0, /
> COc1ccc(S(=O)(=O)N(C)C[C@@H]2Oc3c(NC(=O)CCCCCC(=O)Nc4ccccc4N)cccc3C(=O)N([C@H](C)CO)C[C@@H]2C)cc1
    -5, /, /, -15, /, -0.6, i, -1.7, /
> C[C@@H]1CN([C@@H](C)CO)C(=O)c2cc(NC(=O)Cc3ccccc3)ccc2O[C@@H]1CN(C)C
    7, /, /, 8, /, 0.1, i, -2.8, /
> Cc1cccc(-c2ocnc2C(=O)Nc2ccccc2NC(=O)c2ccccn2)c1
    -35, /, /, -35, -2.0, -11, i, 0.7, 0.68
> C[C@@H]1CN([C@@H](C)CO)C(=O)c2cccc(NS(=O)(=O)c3ccc(Cl)cc3)c2O[C@H]1CN(C)Cc1ccncc1
    2, /, /, 8, /, -1.2, i, -0.7, /
> Cc1cccc(OCC(=O)Nc2ccc(S(=O)(=O)Nc3cc(C)nc(C)n3)cc2)c1
    1, /, /, -11, 0.5, -1.1, i, -2.5, 0.69
> COc1ccc(NC(=O)N[C@@H]2C=C[C@H](CC(=O)NCc3ccccn3)O[C@H]2CO)cc1
    1, /, /, 4, /, -2.1, i, -1.9, /
> Cc1nn(Cc2ccc([N+](=O)[O-])cc2)c(=O)n1N(C)c1ncc(C(F)(F)F)cc1Cl
    /, 4, -3%, /, 5.4, /, /, /, 0.69
> COc1cc(Cl)ccc1OCc1cc(C(=O)NC2CCc3ccccc32)no1 (stereo not drawn)
    13, -18, -5%, 7, 0.2, -1.6, i, -0.4, 0.67
> COc1cc2ccc(=O)oc2cc1OCC(O)C(C)(C)O (stereo not drawn)
    11, 5, /, 5, 1.3, -2.0, i, -2.0, 0.69
> CCOc1ccc(NC(=O)CN(C)C(=O)c2cc(-c3ccc(OC)cc3)nc3ccccc23)cc1OCC
    2, /, 0%, -4, -5.9, 0.1, i, 2.0, 0.71
> COc1cccc(C(=O)N/N=C(/CCC(=O)O)c2ccccc2)c1
    /, 44, -4%, /, -0.7, /, i, 2.3, /
> O=C(COC(=O)c1ccc2c(c1)OCCO2)NCCc1ccccc1
    2, /, /, -9, 2.8, 1.8, i, -10, 0.7
> C[C@@H]1CN([C@H](C)CO)C(=O)Cc2cc(N(C)C)ccc2O[C@H]1CN(C)Cc1ccccc1
    4, /, /, 4, /, -0.4, i, 2.2, /
> CC(C)NC(=O)N(C)C[C@H]1Oc2ccc(NC(=O)Cn3cnnn3)cc2CC(=O)N([C@@H](C)CO)C[C@@H]1C
    -2, /, /, -4, /, 1.8, i, -2.1, /
> CC(Oc1ccc(F)cc1)C(=O)Nc1cccc(S(=O)(=O)N(C)c2ccccc2)c1 (stereo not drawn)
    -36, /, 7%, -44, -2.9, -7.2, i, -5.3, /
> Cc1cc(C)c(NC(=O)CNC(=O)CN2C(=O)NC3(CCCc4ccccc43)C2=O)c(C)c1 (stereo not drawn)
    3, -5, 1%, 3, -4.6, -2.0, i, -1.2, 0.71

# The closing two entries of the part before open the next one.
# Screens in order: rRNA inh HTS, ALR H2O2 inh, Vif A3G, rRNA inh HTS OD600, HNF4A DNA FP, rRNA inh HTS RFP, FGF22 binding, MLL AF4-AF9 inh, E coli growth
> CC(Oc1ccc(F)cc1)C(=O)Nc1cccc(S(=O)(=O)N(C)c2ccccc2)c1 (stereo not drawn)
    -36, /, 7%, -44, -2.9, -7.2, i, -5.3, /
> Cc1cc(C)c(NC(=O)CNC(=O)CN2C(=O)NC3(CCCc4ccccc43)C2=O)c(C)c1 (stereo not drawn)
    3, -5, 1%, 3, -4.6, -2.0, i, -1.2, 0.71
> COc1ccc(NC(=O)COC(=O)CCc2ccc(S(=O)(=O)N3CCOCC3)cc2)cc1Cl
    -12, /, 5%, -9, 3.3, 6.6, i, -2.4, 0.7
> O=C(CNC(=O)N1CC(=O)Nc2ccccc21)Nc1ccc(Cl)cc1Cl
    1, /, -1%, 2, -2.3, -4.7, i, -2.1, /
> CC(C)C#Cc1cnc2c(c1)C(=O)N([C@@H](C)CO)C[C@H](C)[C@H](CN(C)Cc1cncnc1)O2
    1, /, /, -4, /, 1.4, i, -4.9, /
> CCC(C)NC(=O)C1CCN(S(=O)(=O)c2ccc(OC)cc2)CC1 (stereo not drawn)
    /, /, 1%, /, 0.9, /, /, /, 0.74
> COc1ccccc1N1CCc2c(C)nc3c(OC)cccc3c21
    /, 0, 2%, /, 0.7, /, /, /, 0.68
> CCCNC(=O)C1CC(=O)N(c2ccc(OCC)cc2)C1 (stereo not drawn)
    7, -3, /, -6, 0.6, -1.6, i, -0.1, 0.64
> CC1CCN(S(=O)(=O)c2ccc(NC(=O)Cc3ccccc3)cc2)CC1
    -16, -1, -3%, -47, 1.0, 9.2, i, -3.9, 0.64
> C[C@@H]1CN([C@@H](C)CO)C(=O)c2cccc(NC(=O)C3CC3)c2O[C@H]1CN(C)S(=O)(=O)c1ccc(F)cc1
    5, /, /, 3, /, 1.6, i, -2.4, /
> O=C(c1ccccc1F)N1CCN(c2cnn(-c3cccc(Cl)c3)c(=O)c2Cl)CC1
    -19, 1, -11%, -27, 1.4, -8.9, i, 0.3, 0.69
> C[C@@H]1CN([C@H](C)CO)C(=O)c2cc(NC(=O)Cc3ccccc3)ccc2O[C@H]1CN(C)S(=O)(=O)c1ccc(F)cc1
    -3, /, /, -4, /, -2.4, i, -1.6, /
> Cc1cc(C)nc(/N=C2\NC(=O)CC(C(=O)O)N2CCc2c[nH]c3ccccc23)n1 (stereo not drawn)
    6, /, 3%, 7, 1.3, 2.7, i, -3.2, 0.73
> CCCNC(=O)c1ccccc1NC(=O)c1ccccc1SC
    -5, 29, /, -2, -4.5, -1.1, i, -12, 0.7
> CCOc1ccc(CCNC(=O)COC(=O)Cn2nc(C)c([N+](=O)[O-])c2C)cc1OCC
    7, /, -2%, 17, -3.5, 0.9, i, -1.6, 0.7
> COc1ccc(-c2csc(NC(=O)c3ccc(N4C(=O)CCC4=O)cc3)n2)cc1
    24, -9, /, 20, -3.6, 1.6, i, -2.1, 0.7
> O=C(CSc1nc2ccccc2n1S(=O)(=O)c1ccccc1)N1CCCC1
    12, -3, /, 11, -3.3, -2.6, i, -3.7, 0.68
> CCOC(=O)c1ccc(NC(=O)Oc2cc(C)c(Cl)cc2C(C)C)cc1
    -14, -64, -2%, -2, 0.0, -7.1, i, -0.9, /
> CS(=O)(=O)N(CC(=O)Nc1cccc([N+](=O)[O-])c1)c1ccccc1F
    -1, 3, /, 4, -3.2, -11, i, 2.4, 0.66
> Cc1cccc(CC(C)NC(=O)c2cc(COc3ccc(F)cc3F)on2)n1 (stereo not drawn)
    -4, -33, /, -11, -29, -1.9, i, -0.3, 0.69
> CCc1cc(=O)oc2cc(C)cc(OCC(=O)NCc3ccccn3)c12
    -6, 5, /, -7, 2.0, -4.5, i, -6.8, 0.68
> CN(CC(=O)Nc1ccccc1C(=O)NC1CC1)Cc1ccccc1F
    -1, /, -5%, -6, -6.0, -3.0, i, 1.0, 0.69
> COc1ccccc1-c1ccc2n(c1=O)C[C@@H]1[C@@H](CO)[C@H](C(=O)NCc3ccccc3Cl)N[C@H]21
    -6, /, /, -12, /, 0.6, i, 1.9, /
> CO[C@@H]1CN(C)C(=O)c2cc(NC(=O)c3nc4ccccc4s3)ccc2OC[C@@H](C)N(Cc2ccncc2)C[C@H]1C
    -9, /, /, -8, /, 8.7, i, -1.6, /
> Cc1ccc(C(=O)OCC(=O)c2ccc(Cl)s2)s1
    /, -3, -21%, /, 2.4, /, /, /, /
> CCCS(=O)(=O)N1CCN=C1SCc1cccc(F)c1
    3, -4, -9%, -1, 3.6, 4.2, i, 0.5, 0.69
